HIV TAR-Tat = TAR RNA-Tat peptide displacers, HIV-1, primary screen, biochemical, FRET, FAM/TAMRA-labeled Tat; HIV-1 TAR RNA, Tat peptide displacement FRET; hits give high values; z-score (test concentration not listed); actives 0.6% (n = 100,000); AID 1259389, 2018;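 further: score is relative to mean and SD of negative controls; some compounds called inactive have numbers as strong as hits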
CDC25B CDK2 inh = primary biochemical HTRF screen for blockers of M-phase inducer phosphatase 2 binding to CDK2/cyclin A | HTRF CDC25B-CDK2/CyclinA binding, anti-His/anti-Flag; hits give high values | P30305+P24941 | actives 0.72% (n = 94,000) | z-score (concentration not given with the values);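 further: score is relative to mean and SD of negative controls; strong numbers were not always called active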
The depositor's hits bear a star; / = not tested or not shown.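 How the source made its calls: active means z-score from 3 up in half or more of its runs; inactive means the rest.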

compound | HIV TAR-Tat | CDC25B CDK2 inh
Cc1ccc(S(=O)(=O)NCC(c2ccc(N(C)C)cc2)N2CCCC2)cc1 (stereo not drawn) | -1.4 | /
O=C(NCCc1cccs1)c1cnc2sc(N3CCCCC3)nn2c1=O | 1.4 | /
CCCCCc1ccc(C(=O)NC(=S)Nc2c(C(=O)OCC)cnn2C)cc1 | / | -0.94
COc1ccc(SCc2cc(=O)n3ccsc3n2)cc1 | 0.47 | -0.96
Cc1cc(C)n(CC(=O)NCc2ccco2)c(=O)c1C#N | 0.96 | /
Cc1c2occ(C(C)(C)C)c2cc2c1oc(=O)c1ccccc12 | 1.3 | -1.1
O=C1CC(=O)Nc2cc(S(=O)(=O)Nc3ccc(Br)cc3)ccc2N1 | -0.4 | 0.66
COCCn1c2c(c(=O)[nH]c1=O)C(c1ccc(C(C)C)cc1)C1=C(N2)c2ccccc2C1=O (stereo not drawn) | -3.3 | -4.7
CC(C)(C)c1ccc(NC(=O)c2ccc(N3C(=O)CSCC3=O)cc2)cc1 | / | 3.7
CCCn1c(/C=C/c2ccccc2)nc2ccccc21 | / | 0.26
COc1ccc(N2CCN(Cc3cn4c(-c5ccc(Br)cc5)nnc4s3)CC2)cc1 | 3.2 | /
CCOc1ccc(C2(O)CSC3=C(C#N)C(c4ccc(OC(C)C)cc4)CC(=O)N32)cc1 (stereo not drawn) | / | -1.9
COC(=O)C1=C(C)NC2=C(C(=O)CC(c3ccc(OC)cc3)C2)C1c1ccc(OC)cc1OC (stereo not drawn) | 2.8 | -1.2
CCC(=O)Nc1cc2nc3c(nc2cc1C)c(=O)n(C)c(=O)n3C | -1.4 | -1.2
CSc1nnc2c(n1)OC(c1ccccc1OC(C)=O)N(C(C)=O)c1ccccc1-2 (stereo not drawn) | -0.04 | -1.6
CN(C)CCn1cnc2c1c(=O)n(C)c(=O)n2C | -0.07 | -0.66
CCc1nn2c(=O)cc(COC(=O)COc3ccc(C)cc3)nc2s1 | 0.26 | /
Cc1ccc(C)c(CSC2=NS(=O)(=O)c3ccccc3N2)c1 | 1.7 | /
CCOc1ccc(C2N3CC4(C)CN2CC(C)(C3)C4=O)cc1OC (stereo not drawn) | -0.32 | -1.3
COc1ccc(C2Oc3c(OC)cccc3C3CC(c4cc(OC)ccc4O)=NN32)cc1 (stereo not drawn) | -1.4 | -0.68

Overlap with the part before: 3 entries, then new ones.
compound | HIV TAR-Tat | CDC25B CDK2 inh
Cc1ccc(C)c(CSC2=NS(=O)(=O)c3ccccc3N2)c1 | 1.7 | /
CCOc1ccc(C2N3CC4(C)CN2CC(C)(C3)C4=O)cc1OC (stereo not drawn) | -0.32 | -1.3
COc1ccc(C2Oc3c(OC)cccc3C3CC(c4cc(OC)ccc4O)=NN32)cc1 (stereo not drawn) | -1.4 | -0.68
CN1CCN(C(=O)c2nc(SCc3ccc(F)cc3)ncc2Cl)CC1 | -0.24 | -0.9
O=C(CCCc1nnc2c(=O)n(-c3cccc(F)c3)ccn12)N1CCN(c2ccccc2)CC1 | 0.34 | /
Cc1ccc(Oc2nc(C)nc3c2oc2ccccc23)cc1 | 2.9 | /
O/N=C1/Cc2ccccc2OC1c1ccc(F)cc1 (stereo not drawn) | / | -1.9
O=C(O)CSc1nnc(-c2cccc(Cl)c2)o1 | 0.66 | -0.63
O=C(O)c1cc(-c2ccccc2)nc2ccccc12 | 4.1 | -1.3
COCCOC(=O)C1=C(C)NC2=C(C(=O)CC(C)(C)C2)C1c1cccc(OCc2ccccc2)c1 (stereo not drawn) | 2 | -0.63
CCCNC(=O)C1CC2CCCN2C12C(=O)N(C)c1ccccc12 (stereo not drawn) | 1.1 | /
COc1ccc(C2NCCc3c2[nH]c2ccc(OC)cc32)cc1 (stereo not drawn) | 0.08 | 0.05
COc1ccc(NS(=O)(=O)c2ccc3c(c2)CC(=O)N3)cc1 | 1.9 | /
CCC(C)(C(=O)NC1CCCCC1)N(Cc1cccs1)C(=O)Cc1cccs1 (stereo not drawn) | / | -1
CCCCCCCCCCCCCCCCCCN=CC1=C(O)CC(C)(C)CC1=O | / | -4
O=C(Nc1ccccn1)C1(c2cccs2)CCOCC1 | 1.4 | /
COC(=O)c1cc(=O)n2c(-c3ccccc3)csc2n1 | 0.27 | -1.2
CC1Cc2cc(S(=O)(=O)N3CCC(C(=O)N4CCCCC4)CC3)ccc2N1C(=O)C1CC1 (stereo not drawn) | 1 | /
Clc1ccc(Nc2nc(-c3cccnc3)cs2)cc1 | / | -1.9
O=C(Cn1ncc2c([nH]c3ccccc32)c1=O)NCCCN1CCOCC1 | -1.4 | /
O=C(Cn1ncc2c1-c1ccccc1OC2)NCCN1CCOCC1 | -0.19 | -0.52
O=C(CN1CCCCC1)NN1CC(=O)N(c2ccc(F)cc2)CC1=O | / | -0.54
Nc1cc(=O)[nH]c(SCC(=O)Nc2ccccc2F)n1 | -0.02 | -0.22

An excerpt of these results, field by field.
O=C1CC(=O)Nc2cc(S(=O)(=O)Nc3ccc(Br)cc3)ccc2N1
  HIV TAR-Tat = -0.4 | CDC25B CDK2 inh = 0.66
CCCn1c(/C=C/c2ccccc2)nc2ccccc21
  HIV TAR-Tat = / | CDC25B CDK2 inh = 0.26

(further entries)
compound | HIV TAR-Tat | CDC25B CDK2 inh
CCOC(=O)c1noc2nc(C)nc(Nc3ccc(OC)c(OC)c3)c12 | -0.55 | /
Cn1c(SC/C(N)=N/OC(=O)c2cccs2)nnc1-c1ccc(C(C)(C)C)cc1 | / | -1.7
Cc1cc(C)c2c(=O)[nH]n(C3CCCC3)c2n1 | 2.6 | -2.4
Cc1ccccc1Cn1c2ccccc2c2cnn(CC(=O)O)c(=O)c21 | 1.4 | -1.6
O=C(Cn1c(=O)oc2cc(S(=O)(=O)N3CCCC3)ccc21)N1CCc2ccccc2C1 | 2.1 | -2.9
C=CCn1c(N2CCCCC2)nc2c1c(=O)[nH]c(=O)n2C | / | -0.96
COc1ccc(OC)c(NC2c3ccccc3C(=O)N2c2cccnc2)c1 (stereo not drawn) | 1.2 | 1.7
Cc1nc2c(C)nn(-c3ccccc3)c2s1 | 1.7 | -1.8
CC(C)Cn1cc(C(=O)O)c2ccccc2c1=O | 2.8 | 0.15
COc1cccc(NCc2cccn2-c2nnc(N3CCCC3)s2)c1 | 1.3 | /
Cc1cc2ccccc2n1CCNC(=O)C(=O)c1cn(CC(=O)N2CCCC2)c2ccccc12 | -0.66 | /
CC1CCN(S(=O)(=O)c2nnc(NC(=O)c3ccco3)s2)CC1 | 0.79 | -0.11
Cc1cc(C)c2c(CC(=O)Nc3nnc(C(C)C)s3)coc2c1 | 0.3 | -0.99
Cc1cc(S(=O)(=O)OC(C)c2nc3ccccc3[nH]2)c(Cl)cc1Cl (stereo not drawn) | / | -0.23
CCc1ccc(S(=O)(=O)NCCc2csc3nc(-c4cccs4)nn23)cc1 | 0.23 | /
CCOC(=O)c1cc(C)n(CC2CCC(C(=O)NCc3ccco3)CC2)c1C (stereo not drawn) | -0.57 | /
O=C(NC1CCCC1)C1c2ccccc2C(=O)N(C2CCCC2)C1c1cccs1 (stereo not drawn) | 1.8 | /
O=C(CSCc1cc(=O)c2ccccc2[nH]1)Nc1ccccc1 | -0.45 | /
O=C(NCCn1ccc2ccccc21)C(=O)c1c[nH]c2ccccc12 | 0.83 | -0.02
Cc1ccc(-n2nc(N3CCN(S(=O)(=O)c4cnc[nH]4)CC3)ccc2=O)cc1 | 0.29 | /

Given as labelled records: part of the list above.
C=CCn1c(N2CCCCC2)nc2c1c(=O)[nH]c(=O)n2C
  HIV TAR-Tat: /
  CDC25B CDK2 inh: -0.96

O=C(NCCc1cccs1)c1cnc2sc(N3CCCCC3)nn2c1=O
  HIV TAR-Tat: 1.4
  CDC25B CDK2 inh: /

Compound profiles (already shown). Screens in order: HIV TAR-Tat, CDC25B CDK2 inh
`CCc1ccc(S(=O)(=O)NCCc2csc3nc(-c4cccs4)nn23)cc1` as listed: 0.23, /
`Cc1cc(C)c2c(=O)[nH]n(C3CCCC3)c2n1` as listed: 2.6, -2.4

Additional records:
compound | HIV TAR-Tat | CDC25B CDK2 inh
O=C1CCCC2=C1C(c1ccc(OCc3ccccc3F)cc1)C1=C(CCCC1=O)N2 | / | -1
CC(=O)c1ccc(N2CCC(C(=O)c3ccccc3)CC2)c([N+](=O)[O-])c1 | / | -3.1
CC(C)S(=O)(=O)c1ccc(C(=O)Nc2nc3ccc(S(=O)(=O)N(C)C)cc3s2)cc1 | 0.35 | /
Cc1nn(-c2ccccc2)nc1C(=O)NNC(=O)c1ccccc1 | / | -0.23
CCCN1C(=O)C(O)(CC(=O)c2ccc(-n3cccc3)cc2)c2cc(Br)ccc21 (stereo not drawn) | -0.8 | -1.6
Nc1cc(=O)[nH]c(SCc2nc(-c3cccs3)no2)n1 | -0.5 | -1.7
Cc1ccc(-c2cc(C(=O)N(Cc3ccc(C)o3)C3CCS(=O)(=O)C3)no2)cc1 (stereo not drawn) | 1.1 | -1.1
COc1ccc(Nc2nc3c(S(=O)(=O)c4ccccc4)nnn3c3ccsc23)c(OC)c1 | -1.5 | /
Cc1cccn2c(=O)c3cc(C#N)c(=O)n(Cc4cccnc4)c3nc12 | 2 | -0.53
COc1ccc(Cc2nc(-c3ccc(C)cc3)n[nH]c2=O)cc1OC | 1.1 | /
O=C(Cn1ncc2c3ccccc3n(Cc3ccccc3)c2c1=O)NCC1CCCO1 (stereo not drawn) | -0.04 | 0.7
Cc1cc(-c2ccc(C)c(S(=O)(=O)Nc3cccc(C)n3)c2)on1 | -0.44 | /
Cc1ccccc1-c1noc(-c2cc(C3CC3)[nH]n2)n1 | -0.2 | /
c1ccc(CC(NCc2c[nH]c3ccccc23)c2ccccc2)cc1 (stereo not drawn) | / | -0.26
CCS(=O)(=O)c1nc(S(=O)(=O)c2ccc(C)cc2)c(NCC(C)C)s1 | 0.59 | -0.88
CCCN1CCN(C(=O)C2CCCN(c3nc4ncccc4n4cccc34)C2)CC1 (stereo not drawn) | 0.53 | /
COc1cc(OC)nc(NC(=O)Nc2cccc(Cl)c2)n1 | 1.9 | -1.8
CC(=O)N(c1ccc(Br)cc1)C1C=CS(=O)(=O)C1 (stereo not drawn) | / | -0.79
COCCCNC(=O)c1nc2ccccc2c(=O)n1NC(=O)c1c(F)cccc1F | / | -2
CCOC(=O)C1CCN(C(=O)Nc2c(-c3ccccc3)noc2C)CC1 | / | -0.97

New compounds follow.
Each structure is followed by: HIV TAR-Tat, CDC25B CDK2 inh
- O=C1c2ccccc2C(Nc2ccc(S(=O)(=O)N3CCCCC3)cc2)N1Cc1ccco1 (stereo not drawn)
→ /, -1.2
- CC1CCCN(C(=O)CN(C)S(=O)(=O)c2cc3c(cc2Cl)NC(=O)CO3)C1 (stereo not drawn)
→ 0.29, /
- Cc1ccc(S(=O)(=O)NC(=O)N2CCCN(C(=O)OC(C)(C)C)CC2)cc1
→ /, -1
- O=C(Nc1ccc(F)cc1)c1[nH]nc2c1COc1ccccc1-2
→ 0.77, /
- COc1ccc(-c2n[nH]c3c2C(c2ccc(OC)cc2OC)NC3=O)cc1 (stereo not drawn)
→ 0.21, /
- CCOc1ccc(-c2cccc(NS(=O)(=O)c3ccccc3F)c2)nn1
→ 0.96, /
- O=c1[nH]c(-c2cc(Cl)ccc2O)nc2c1Cc1ccccc1O2
→ 2.1, -0.53
- CN(CCCNC(=O)c1cc(-c2cccnc2)nc2ccc(Br)cc12)Cc1ccccc1
→ 0.17, /
- O=C(Nc1ccc(O)c(-c2nc3ccccc3s2)c1)c1ccc([N+](=O)[O-])o1
→ 2.1, -2.1
- O=C1CC(Nc2ccc(F)cc2)C(=O)N1c1ccccc1Cl (stereo not drawn)
→ -0.46, -1.8
- O=C(Nc1nc2ccccc2s1)c1cccc2c(=O)c3c([nH]c12)CCC3
→ -0.08, -0.92
- Cc1[nH]nc2c1C1(CCCCC1)C(C#N)=C(N)O2
→ /, -1.1
- CCn1ccc2cc(S(=O)(=O)N3CCCN(C(=O)NCCOC)CC3)ccc21
→ 1.7, /
- Cn1c(=O)oc2cc(S(=O)(=O)N3CCC(C(=O)N4CCN(C5CCCCC5)CC4)CC3)ccc21
→ /, -1.1
- COc1ccc(OC)c(NC(=O)N2CCN(c3nc4cc(F)ccc4n4cccc34)CC2)c1
→ 0.86, /
- C=CCN(C(=O)CSc1nc2ncccc2[nH]1)c1ccccc1
→ 2.1, /
- CC(C)OCCCNc1nc2c(-c3ccc(Cl)cc3)nnn2c2ccccc12
→ 0.92, -1
- Cc1ccc(N2C(=O)CC(Sc3nnc(C)s3)C2=O)c(C)c1 (stereo not drawn)
→ -0.03, -2.3
- CC(=O)Nc1ccc(S(=O)(=O)NC2=NCN(CC3CCCO3)CN2)cc1 (stereo not drawn)
→ 1.4, 0.04
- c1ccc2c(c1)CCCN2c1nc(N2CCOCC2)nc(N2CCOCC2)n1
→ /, 0.38
- O=C(O)CCN1C(=O)C(=O)/C(=C(/O)c2ccccc2)C1c1ccc(F)cc1 (stereo not drawn)
→ /, 1.6
- COCCOC(=O)c1c(C)oc2cc(Br)c(OCc3ccc(C(=O)OC)cc3)cc12
→ 0.03, -1.3
- Cc1ccc2n1CCN(C(=O)Nc1cccc(Cl)c1)C2C(C)C (stereo not drawn)
→ 1.9, /
- CCCN(CCC)S(=O)(=O)c1cccc(-c2cn3ccc(C)cc3n2)c1
→ 1.8, -1.5
- Clc1ccc2c(Cl)c3c(nc2c1)CCCC3
→ /, -0.87
- COC(=O)c1ccc(COc2ccc3c4c(c(=O)oc3c2C)CCC4)o1
→ /, 0.6
- C=CCn1c(C2CC(=O)N(c3ccc(OC)cc3)C2)nc2ccccc21 (stereo not drawn)
→ -2.4, -1.6

Bioassay records deposited in PubChem by Center for Chemical Genomics, University of Michigan.
